Screening results as filed in PubChem BioAssay.
TRPML1 blocker: inhibitors of human TRPML1 channel | TRPML1-inducible cells, Ca2+ dye fluorescence, FDSS; hits give low values; inhibition of EC80 agonist-evoked calcium signal | activity change, negative = inhibition, % (concentration not given with the values) | Q9GZU1 | 0.02% of 390,000 active; in the data active means activity change below about -50%; inconclusive means about -30% to -50%; inactive means above about -30%;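 further: stimulus is agonist 54-4 at its EC80 concentration; on the % scale 0 is the no-effect control and ±100 the full control effect; compound concentration not given in the record; the text of the record puts the active cut at -80%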
Target sequence (Q9GZU1 whole entry, looked up): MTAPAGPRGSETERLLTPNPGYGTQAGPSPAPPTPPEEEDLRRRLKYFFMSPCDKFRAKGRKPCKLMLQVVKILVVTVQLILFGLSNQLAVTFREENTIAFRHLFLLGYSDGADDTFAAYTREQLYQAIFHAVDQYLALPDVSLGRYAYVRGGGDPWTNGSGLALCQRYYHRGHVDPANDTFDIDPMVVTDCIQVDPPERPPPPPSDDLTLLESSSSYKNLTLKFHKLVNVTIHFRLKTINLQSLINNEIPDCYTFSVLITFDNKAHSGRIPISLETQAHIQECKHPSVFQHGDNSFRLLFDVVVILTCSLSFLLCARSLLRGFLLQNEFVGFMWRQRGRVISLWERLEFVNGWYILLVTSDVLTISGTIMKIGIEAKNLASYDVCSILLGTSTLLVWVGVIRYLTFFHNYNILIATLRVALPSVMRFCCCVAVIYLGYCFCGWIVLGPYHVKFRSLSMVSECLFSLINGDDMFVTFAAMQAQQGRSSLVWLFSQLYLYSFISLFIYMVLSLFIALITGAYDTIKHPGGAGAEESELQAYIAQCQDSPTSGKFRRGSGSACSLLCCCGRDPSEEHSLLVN
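Tet-induced TRPML1-DL cells loaded with Ca8 no-wash calcium dye were read kinetically on FDSS. Compound addition was followed by EC80 agonist 54-4 (4 uM final); inhibition was read over 110 s.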
ClpP mod: qHTS Assay for Activators of ClpP. purified B. subtilis ClpP, FRET peptide cleavage, 20 min. Potency, µM (highest dose often 57.5 µM), without a hit: at the top dose activity change, negative = active. ATP-dependent Clp protease proteolytic subunit (Bacillus subtilis (strain 168)), P80244. 1.9% of 340,000 active; active = well fitted falling curve with a large enough effect; inconclusive = small, poorly fitted or top-dose-only effect; inactive = no such curve, though single readings can be large or run the other way; further: potency means the concentration at half of the fitted maximal effect; the source files actives as falling curves though it sought activators and does not explain the sign; nearly all actives have a fitted effect of over 65% in size; many hits overshoot -100%
Target sequence (P80244 whole entry, looked up): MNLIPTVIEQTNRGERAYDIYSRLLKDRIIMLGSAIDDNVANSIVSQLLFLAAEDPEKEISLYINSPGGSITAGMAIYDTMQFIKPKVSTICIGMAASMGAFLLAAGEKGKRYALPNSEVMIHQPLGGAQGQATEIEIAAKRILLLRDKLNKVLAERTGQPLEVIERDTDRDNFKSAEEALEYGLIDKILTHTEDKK
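FRET quenching reversal measured ClpP activation: 10 microg/mL B. subtilis ClpP at pH 8 with the FRET-FV decapeptide, read at 430 nm after 320 nm excitation. The 20-min minus 0-min signal was scaled between DMSO/no-enzyme wells and ADEP (5.8 microM final).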
* = called active by the depositor; u = inconclusive. These rows are one share of the data. The share of hits here may be higher or lower than overall.

SMILES	TRPML1 blocker	ClpP mod
CCN(CCCNC(=O)c1cc2c(=O)n(CC)c3ccccc3c2s1)Cc1ccccc1	15	3.5µM*
O=c1cc(-c2ccccc2)c2ccc3c(c2o1)CN(Cc1ccccc1)CO3	-7	-6.2%
COc1ccc(N2CCN(C(=O)C3CCCN(C(=O)c4cc5sccc5n4C)C3)CC2)cc1 (stereo not drawn)	-11	-2.6%
Cc1cc(NC(=O)CCS(=O)(=O)c2cc3c4c(c2)CCN4C(=O)CC3)ccc1Br	-9	0.9%
CCOc1ccc(-c2nonc2NC(=O)c2oc3cc(C)c(C)cc3c2C)cc1OCC	0	-10%
COc1ccc(CCNC(=O)CCSCc2ccccc2Cl)cc1OC	11	-1.8%
O=C(CSc1oc(-c2ccco2)nc1S(=O)(=O)c1ccccc1)c1ccc(Cl)cc1	15	-0.1%
CCOc1ccc2oc(=O)cc(CN3CCN(Cc4ccc(C)cc4)CC3)c2c1	-10	-6.9%
COc1ccc(/C=C/C(=O)Nc2ccc3nc(N4CCC(C)CC4)cc(C)c3c2)cc1	-9	-0.5%
CCCOC(=O)c1c(-c2ccccc2)c(-c2ccccc2)nn(C)c1=O	51	0.0%
COc1cc(NC(=O)c2ccc(-n3cnc4cccnc43)cc2)cc(OC)c1	23	-24%
CCc1ccc(NCc2cc3cc4c(cc3n(CC(=O)Nc3ccccc3OC)c2=O)OCCO4)cc1	32	4.7%
CCc1cccc(C)c1NC(=O)CSc1nc2ccccc2nc1Cc1ccccc1	56	-8.7%
COc1cccc(Nc2nc3cc(Cl)c(Cl)cc3nc2-n2nc(C)cc2C)c1	5	-2.4%
O=C(Nc1cccc(C(F)(F)F)c1)c1ccc2sc([C@@H]3O[C@H](CO)[C@H](O)[C@H](O)[C@H]3O)nc2c1	26	-1.6%
CC(NC(=O)c1cc(Sc2ccc(F)cc2F)nc2ccccc12)c1ccccc1 (stereo not drawn)	-15	u
COc1cc(OC)c(NC(=O)n2ncc3cc(Cl)ccc32)cc1Cl	-1	0.0%
COc1ccc(-n2nc(C(=O)Nc3ccc(Cl)cn3)c3c4ccccc4n(C)c3c2=O)cc1	-22	0.1%
O=C(Nc1ccc(Cl)cc1)C1CCN(S(=O)(=O)c2ccc(Br)s2)CC1	-20	-0.1%
COc1ccc(C(=O)NCc2nnc(SCC(=O)Nc3ccc(F)cc3)n2-c2ccccc2)cc1	-2	-10%
CCOC(=O)c1cccc(NC(=O)c2ccc3nc(C(C)C)oc3c2)c1	6	-6.5%
CCN1CCN(C(c2ccccc2F)c2c(O)cc(C)n(CCOC)c2=O)CC1 (stereo not drawn)	3	-0.5%
COc1cccc(OC)c1OCCN1CCC(C(=O)NC(c2ccc3c(c2)OCO3)c2ccccn2)CC1 (stereo not drawn)	40	-7.9%
Cc1ccc(-n2nc(C)c3c(C(=O)NCCc4ccccc4)cc(C)nc32)cc1	26	91%
COc1cccc(CNC(=O)c2cc(-c3ccc(Cl)s3)nc3ccccc23)c1	9	3.2µM*
SMILES	TRPML1 blocker	ClpP mod
CCc1ccc(-n2nc3ccc(NC(=O)c4cc(Cl)c(OC)c(Cl)c4)cc3n2)cc1	-16	-11%
CCN(CC)S(=O)(=O)c1ccc2c(c1)c(=O)c(C(=O)NCc1ccccc1)cn2C	-4	-3.3%
Cc1cccc(CNC(=O)Cn2ccc3cc(S(=O)(=O)N4CCC(C)CC4)ccc32)c1	-2	-23%
COCCNC(=O)c1cnn(-c2ccc(C)cc2C)c1C1CCN(C(=O)OC(C)(C)C)CC1	-7	-0.9%
COc1ccc(C2CC(=O)c3cc(-c4nc(-c5ccc(Cl)cc5)cs4)c(=O)[nH]c3C2)cc1OC (stereo not drawn)	7	u
Cc1ccc(C)c(N(C)C(=O)C2CCN(S(=O)(=O)c3cccc4nsnc34)CC2)c1	9	0.2%
Cc1cccc(C(=O)n2nc(C)c(S(=O)(=O)N3CCOCC3)c2C)c1	0	0.5%
CCCCn1c(C2CC(=O)N(c3ccc(OCC)cc3)C2)nc2ccccc21 (stereo not drawn)	34	1.1%
Cc1ccc(-c2nnc(Nc3ccc(O)cc3)c3ccccc23)cc1S(=O)(=O)N1CCN(C)CC1	41	1.7%
CNS(=O)(=O)c1cn(CC(=O)N2CCN(c3ccccc3F)CC2)cc1S(=O)(=O)NC	-7	-0.9%
COc1ccc(S(=O)(=O)NCc2cccn2Cc2cc(C)ccc2C)cc1OC	0	-0.2%
Cc1oc(-c2cccc(Cl)c2)nc1CN1CCCC(C(=O)NCCc2ccc(Cl)cc2)C1 (stereo not drawn)	12	-4.7%
COc1ccc(CCNC(=O)CCCCn2c(=O)c3ccccc3n(Cc3ccc(Cl)cc3)c2=O)cc1OC	-3	-14%
CCCNC(=O)c1c(NC(=O)c2ccccc2F)sc2c1CCCCC2	-1	-0.9%
CCOC(=O)C1=CCN(S(=O)(=O)c2ccccc2)C1c1ccc(Cl)cc1 (stereo not drawn)	-2	0.4%
CC(C)Cc1nn2c(=O)cc(COC(=O)c3cccc(NC(=O)CCc4ccccc4)c3)nc2s1	-3	-1.7%
O=C(NCc1ccc(F)cc1)c1cc(C2CCCCN2S(=O)(=O)c2ccccc2)on1 (stereo not drawn)	-2	u
CC(C)c1ccc(C2CC(=O)Nc3cc4c(cc32)OCCO4)cc1 (stereo not drawn)	-16	-0.2%
COc1cccc(-c2nnc(-c3ccccc3NC(=O)c3ccc(F)cc3F)o2)c1	2	-30%
O=C(Nc1ccc2oc(-c3cc(Br)ccc3Cl)nc2c1)c1cc2ccccc2o1	-7	4.0%
Cc1ccc(CN2CCCn3nc(C(=O)NCc4ccccc4Cl)cc3C2=O)cc1	25	-13%
CCOC1=C2[C@@H](CN(S(=O)(=O)c3ccc(C)cc3)[C@H]2c2ccc(Cl)cc2)[C@H]2C(=O)N(c3ccccc3)C(=O)[C@H]2C1	11	0.6%
CCc1ccc(-n2c(=O)c3c4c(sc3n(CC(=O)c3ccc(Cl)cc3)c2=O)CCC4)cc1	-3	2.5%
CCc1ccc2occ(CC(=O)Nc3c(C(=O)Nc4ccc(C)cc4)oc4ccccc34)c2c1	14	261%
Cc1ccccc1Cn1c(SCc2ccc(C(=O)NC3CCCC3)cc2)nc2ccncc21	1	-3.1%

Record cards, from the list above.
COc1cccc(CNC(=O)c2cc(-c3ccc(Cl)s3)nc3ccccc23)c1 in the list: TRPML1 blocker: 9; ClpP mod: 3.2µM*
CCCCn1c(C2CC(=O)N(c3ccc(OCC)cc3)C2)nc2ccccc21 (stereo not drawn) in the list: TRPML1 blocker: 34; ClpP mod: 1.1%

In a second layout: 5 of the compounds above
Below each SMILES – TRPML1 blocker	ClpP mod
CCN(CC)S(=O)(=O)c1ccc2c(c1)c(=O)c(C(=O)NCc1ccccc1)cn2C
    -4	-3.3%
Cc1cccc(CNC(=O)Cn2ccc3cc(S(=O)(=O)N4CCC(C)CC4)ccc32)c1
    -2	-23%
COCCNC(=O)c1cnn(-c2ccc(C)cc2C)c1C1CCN(C(=O)OC(C)(C)C)CC1
    -7	-0.9%
COc1ccc(C2CC(=O)c3cc(-c4nc(-c5ccc(Cl)cc5)cs4)c(=O)[nH]c3C2)cc1OC (stereo not drawn)
    7	u
Cc1ccc(C)c(N(C)C(=O)C2CCN(S(=O)(=O)c3cccc4nsnc34)CC2)c1
    9	0.2%

(list continues)
SMILES	TRPML1 blocker	ClpP mod
CCOc1ccc(C(=O)NCc2ccc3c(c2)CCN3C(=O)c2ccc(Cl)cc2)cc1	1	-4.3%
CCc1ccc(NC(=O)CSc2ccc3nc(-c4ccc(OC)cc4)cn3n2)cc1	11	4.1%
CC(C)(C)OC(=O)N1CCC(c2c(C(=O)N3CCC(c4ccccc4)C3)cnn2-c2ccc(Cl)cc2)CC1 (stereo not drawn)	12	2.2%
COc1ccc(C(=O)Nc2ccc(N(C)Cc3ccccc3)c(C(=O)O)c2)cc1	-3	0.4%
Cc1ccc(CCNC(=O)CCCc2nnc3n(C)c(=O)c4sccc4n23)cc1	8	-18%
CCOc1ccccc1NC(=O)c1c(NCc2sccc2C)sc2c1CCC(C)C2 (stereo not drawn)	5	1.7%
COc1ccc2[nH]cc(CCNC(=O)Nc3ccc(F)cc3)c2c1	-5	-17%
CCOC(=O)c1c(NC(=O)c2ccc(OCC)c(Br)c2)sc2c1CCCC2	-2	-4.1%
Cc1ccccc1-c1noc(-c2ccc(N3CCOCC3)c([N+](=O)[O-])c2)n1	-4	0.7%
COc1ccc(OC)c([C@@H]2Nc3ccc(C(=O)O)cc3[C@@H]3C=CC[C@@H]32)c1	-1	-16%
COc1ccc(CCN2C(=O)c3[nH]nc(-c4ccccc4O)c3C2c2cccc(OC)c2)cc1 (stereo not drawn)	8	-6.3%
Cn1nnc2c(NCc3ccccc3Cl)ncnc21	6	2.3%
CCC(=O)N1CCc2cc(CNS(=O)(=O)c3ccc(C(C)C)cc3)ccc21	21	1.4%
O=C(NCC(c1cccnc1)N1CCc2ccccc21)c1ccc(F)cc1 (stereo not drawn)	25	1.1%
COc1cc(NS(=O)(=O)c2cccs2)cc(OC)c1	8	0.6%
Cn1c(=O)c2c(nc(SCC(=O)Nc3ccc(F)cc3)n2Cc2ccc(Cl)cc2)n(C)c1=O	4	1.7%
CCOc1ccccc1CNC(=O)CN1C(=O)c2cccnc2Oc2ccc(Cl)cc21	-5	1.6%
COc1ccc(-c2cc(C(F)(F)F)n3nc(C(=O)Nc4cccc(Cl)c4C)cc3n2)cc1	7	-14%
Cc1cn2c(=O)cc(COC(=O)c3cccc(NC(=O)c4ccccc4C)c3)nc2s1	-23	-11%
COc1cc(Cl)c(NC(=O)CN(C)S(=O)(=O)c2ccc3c(c2)CCCC(=O)N3)c(OC)c1	-8	1.2%
CC(C)c1ccc(OCC(=O)N(Cc2ccc(N(C)C)cc2)C2CCS(=O)(=O)C2)cc1 (stereo not drawn)	-14	-2.2%
CC(C)N(Cc1ccccc1)c1ncnc2c1nnn2C	-8	0.2%
CC(C)c1nn2c(=O)cc(COC(=O)c3ccccc3NC(=O)c3cccs3)nc2s1	0	-0.5%
CCc1ccc(N2CC(c3nnc(NC(=O)c4ccco4)s3)CC2=O)cc1 (stereo not drawn)	-2	4.2%
COC(=O)N1CCCCC1c1cc(C(=O)Nc2ccc3c(c2)OCO3)no1 (stereo not drawn)	-17	0.1%
SMILES	TRPML1 blocker	ClpP mod
COc1ccc(NC(=O)c2oc3ccccc3c2NC(=O)c2cc(=O)c3c(C)cc(C)cc3o2)cc1	-5	0.3%
Cn1ccc2c(N(Cc3ccccc3)Cc3ccccc3)cc3c(c21)C1CCC3O1 (stereo not drawn)	55	-5.0%
CCCCN(CCCNC(=O)c1c(C)oc2nc[nH]c(=O)c12)Cc1ccccc1	55	4.4%
Cc1oc(-c2ccc(Cl)cc2)nc1CN1CCCC(C(=O)NCc2ccccc2)C1 (stereo not drawn)	-7	u
Cc1cccc(-n2ncc3c(N4CCN(c5ccccc5)CC4)ncnc32)c1	-5	33%
CC1CCc2nc3ncn(Cc4cccc(F)c4)c(=O)c3cc2C1 (stereo not drawn)	45	-2.2%
COc1ccccc1-c1nnc(C2CCN(C(=O)c3ccccc3C)CC2)o1	11	-20%
O=C(Nc1nnc(SCc2cc(=O)n3cc(Cl)ccc3n2)s1)c1cccc(F)c1	-7	-7.9%
CCOc1ccc(C(=O)NCC(c2ccc(Cl)cc2)N2CCCCC2)cc1 (stereo not drawn)	-3	0.1%
COc1ccccc1-c1nc2c(c(SCC(=O)Nc3c(C)cc(C)cc3C)n1)Cc1c(CO)cnc(C)c1O2	-2	-4.3%
COc1ccc(CNC(=O)C2CCN(S(=O)(=O)c3ccc4c(c3)CCCN4C(C)=O)CC2)cc1	-9	-4.0%
CCC1CN(C(=O)N2CCC(C(=O)NCc3ccccc3F)CC2)c2ccccc2O1 (stereo not drawn)	u	1.4%
COc1ccc(-n2ccnc2SCC(=O)Nc2nnc(C)s2)cc1	-2	-5.5%
COc1ccc(CCC(=O)NC2CC(=O)N(c3ccc(F)cc3)C2)cc1 (stereo not drawn)	-3	-1.2%
Cc1cc(C)cc(-n2nnc(-c3nc(-c4ccc5c(c4)OCO5)no3)c2C)c1	31	-16%
COc1ccccc1N1CCN(c2ncnc3onc(C)c23)CC1	9	-0.6%
CCCOc1ccc(C(=O)Nc2cc(-c3nc4cc(C)cc(C)c4o3)ccc2C)cc1	5	-5.2%
COc1ccccc1CNC(=O)c1cc2cc3ccc(Cl)cc3nc2o1	2	-8.7%
O=C(Cn1ncc2c3ccccc3n(Cc3ccc(Cl)cc3)c2c1=O)NCCCc1ccccc1	-3	2.8%
Cc1ccc(Cc2c(C3CCCCC3)nc3ccc(C)cn23)cc1	-8	4.7%
Cc1cccc(OCC(=O)Nc2nonc2-c2ccc(Br)cc2)c1C	-14	3.0%
Cc1ccccc1NC(=O)Cn1c(=O)n(CCCC(=O)NCc2ccc3c(c2)OCO3)c(=O)c2ccccc21	5	-1.9%
Cc1ccc(Cl)cc1-n1ncc2c(Nc3ccc4c(c3)OCCO4)ncnc21	-11	-1.1%
CCc1ccccc1N1C(=O)N(Cc2cc(=O)n3ccccc3n2)c2ccccc2S1(=O)=O	11	4.3%
